Bfl-1 A1 inh = caspase 3/7 activation in MEF A1-2A-BIM cells, primary screen, A1 inhibitor project, cell-based, luminescence, HTS; caspase activation, % (no concentration beside the values); AID 2462, 2010; Caspase-Glo 3/7 luminescence, 3 h; percent of clofoctol response, vehicle zero; 330,000 compounds, 0.066% hits;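 active = over half of replicate activation scores above 10%, or exactly half above 10 with the replicate mean above 10; inconclusive = replicate mean below 10 yet half the replicates above 10; inactive = over half of replicates below 10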;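 note: wells of about 30 µL received 50 nL stock; many hits fall short of the cut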
T cruzi repl = inhibitors of intracellular T. cruzi growth, primary screen, luminescence, NIH3T3 host cells. T. cruzi beta-gal in NIH3T3, 90 h. inhibition, % (concentration not given with the values). 300,000 compounds, 1.4% hits. AID 1885, 2009;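 active = mean inhibition across valid replicates above about 55%, limit read from the data; inconclusive = mean below that limit but half or more replicates reach it; inactive = mean below it, under half of replicates reach it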;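 note: signal also drops with host cell toxicity which is not excluded here; 0% = plate median of DMSO wells and 100% = zero luminescence signal; higher percent means less beta-gal luminescence so fewer parasites; stock transfer was 50 nL into about 50 µL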
RanGTP-Impb inh = inhibitors of RanGTP-importin-beta interaction, primary screen, biochemical, FRET, CFP-Ran, YFP-importin-beta, homogeneous; 300,000 compounds, 1.1% hits; AID 2216, 2009; inhibition, % (concentration not given with the values); Ran GTPase (GTP-bound) - importin-beta complex; cell-free CFP-Ran/YFP-importin-beta FRET ratio;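 active = most replicates above 15%; inconclusive = exactly half above 15%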;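 note: 0% = DMSO wells and 100% = Ran loaded with GDP instead of GTP; wells of about 40 µL received 100 nL stock; the first replicate is given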
Calb FLC = C. albicans growth inhibition with fluconazole, primary screen, CaCi-2 strain, Alamar Blue fluorescence; growth inhibition, % (no concentration beside the values); 300,000 compounds, 0.57% hits; AID 1979, 2009; C. albicans CaCi-2 (fluconazole-resistant clinical isolate) + fluconazole, 48 h;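 active = most replicates above 75%; inconclusive = exactly half above 75%; inactive = most below 75%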;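 note: all wells also contain fluconazole at 8 µg/ml as a sub-toxic cotreatment; 0% = median of DMSO wells and 100% = median of geldanamycin control wells; wells of about 8 µL received 7.5 nL stock; the first replicate is given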
Vif A3G = inhibitors of Vif binding to APOBEC3G peptide, primary screen, biochemical, TR-FRET, GST-Vif 1-94, biotin-A3G peptide, dose response retest (AID 1117319). inhibition, %, or IC50 in µM where a hit was titrated. 260,000 compounds, 0.57% hits. TR-FRET GST-Vif / biotin-A3G peptide binding; higher % means a stronger effect; test concentration not given here; strong numbers were not always called active. Virion infectivity factor (Human immunodeficiency virus type 1 group M subtype B (isolate …;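 active = above the screen mean plus three standard deviations and confirmed in dose response; inconclusive = results disagree or hit not tested in dose response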;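 note: Vif residues 1-94 fused to GST binding biotinylated APOBEC3G peptide 110-148; 0% = full assay without inhibitor and 100% = GST in place of GST-Vif; retest series ran down from 100 µM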
Beta cell apopt = inhibitors of cytokine-induced beta cell apoptosis, primary screen, luminescence | INS-1E cytokine-induced death, ATP luminescence, 48 h; percent of positive-control rescue, neutral wells zero | protection from apoptosis, % (test concentration not listed) | 300,000 compounds, 0.8% hits;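 active = all replicates at 75% or more, or half of them and the mean; inconclusive = half reach 75% but not the mean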;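 note: 0% = cytokine-treated negative control wells and 100% = positive control rescue; higher means more ATP so stronger rescue from cytokine killing; wells of about 40 µL received 100 nL stock; the first replicate is given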
rRNA inh HTS = reduced GFP signal of wild-type E. coli, primary screen, bacterial rRNA inhibitor project, GFP/RFP fluorescence, OD600, single point. E. coli WT GFP vs humanized-ribosome RFP mutants, 24 h; stronger effect = lower value; DMSO median 0, no signal -100. GFP signal change (wild-type ribosome), % (concentration not given with the values). 350,000 compounds, 1.6% hits. AID 720706, 2013;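 active = significant combined selectivity score with lowered wild-type GFP, culture density cut under 30%, mutant RFP and density less affected; inactive = any of these conditions unmet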; note: one replicate is shown; some compounds called inactive have numbers as strong as hits
AF4-AF9 inh = inhibitors of AF4 peptide binding to AF9, primary screen, biochemical, AlphaScreen, biotin-AF4 peptide, FLAG-AF9, single point | AID 651704, 2012 | Protein AF-9 (Homo sapiens), P42568 | inhibition, % at 10 µM | 350,000 compounds, 0.47% hits;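 active = every replicate reaching a set inhibition limit, whatever the replicate mean, cut at about 25% in these data; inconclusive = mean inhibition reaches that limit but some replicates miss it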;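 note: 0% = plate neutral control median and 100% = total signal loss; the record names both 10 and 1 µM as test concentration; the first replicate is given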
Target sequence (P42568 whole entry, looked up): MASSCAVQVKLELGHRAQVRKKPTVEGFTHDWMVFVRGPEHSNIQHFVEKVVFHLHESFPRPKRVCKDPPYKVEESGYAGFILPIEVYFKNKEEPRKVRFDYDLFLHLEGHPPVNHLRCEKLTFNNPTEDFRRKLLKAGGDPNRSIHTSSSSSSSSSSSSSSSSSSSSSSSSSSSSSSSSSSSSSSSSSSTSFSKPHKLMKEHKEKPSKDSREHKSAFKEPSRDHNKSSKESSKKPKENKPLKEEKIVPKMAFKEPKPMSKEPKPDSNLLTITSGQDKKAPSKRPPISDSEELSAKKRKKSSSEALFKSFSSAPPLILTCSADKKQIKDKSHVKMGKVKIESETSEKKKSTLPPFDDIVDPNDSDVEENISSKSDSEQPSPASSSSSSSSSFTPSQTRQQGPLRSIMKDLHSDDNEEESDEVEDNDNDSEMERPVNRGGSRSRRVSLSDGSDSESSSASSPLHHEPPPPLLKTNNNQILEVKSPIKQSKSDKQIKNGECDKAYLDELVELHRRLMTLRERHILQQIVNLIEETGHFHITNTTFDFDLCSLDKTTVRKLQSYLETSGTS
rRNA inh HTS OD600 = further read-out of rRNA inh HTS, marked with its call; OD600 change, %; measured here: OD600 growth;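 optical density of the mix in the first replicate; 0 = DMSO median and -100 = no signal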
rRNA inh HTS RFP = second read-out of rRNA inh HTS, no call of its own (marks repeat the call); RFP signal change, %; measured here: RFP humanized mutant strains;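 first replicate; 0 = DMSO median and -100 = no signal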
Numbers without * were called inactive; ? = inconclusive; . = not tested or not shown; & = joins results of further samples.

SMILES,Bfl-1 A1 inh,T cruzi repl,RanGTP-Impb inh,Calb FLC,Vif A3G,Beta cell apopt,rRNA inh HTS,rRNA inh HTS OD600,rRNA inh HTS RFP,AF4-AF9 inh
COc1cccc(C2CC(c3ccc(Cl)cc3Cl)n3nc(N)nc3N2)c1 (stereo not given),-1.6,14,-2.1,5,6%,0,-3,-13,-3.9,2.7
CCc1ccc(-c2ccc3nnc(SCC(N)=O)n3n2)cc1,-2.9,-17,-1.8,32,.,-4,8,2,1.3,-0.7
CC1(CCc2ccccc2)NC(=S)N(c2ccccc2)N1 (stereo not given),-0.7,7,?,15,9%,-6,20,10,3.4,0.2
N[C@@H](Cc1ccc(O)cc1)C(=O)Nc1ccc2ccccc2c1,-0.5,.,.,.,5%,-4,3,6,6.7,4.1
C=CCNC(=O)c1ccccc1NC(=O)c1cccc2ccccc12,-0.4,-3,3.2,13,7%,-7,.,.,.,.
CCCCCCCNC(=O)C1(CC2CC(c3ccc(Cl)cc3)=NO2)CCN(C(=O)c2cc(OCC)c(OCC)c(OCC)c2)CC1 (stereo not given),1.7,39,0.5,7,.,12,11,17,2.6,7.5
O=c1[nH]c(/C=C/c2ccccc2)c([N+](=O)[O-])c(=O)[nH]1,0.0,-15,-0.2,-8,.,-4,12,16,0.7,2.0
Cc1nc(=S)n(-c2ccccc2)[nH]1,0.4,-4,-1.8,-1,6%,3,.,.,.,.
COc1ccc(CCN2CC(C(=O)NCCc3cnn(C)c3)CCC2=O)cc1 (stereo not given),-0.5,-16,6.7,12,.,-2,7,16,-1.1,-0.5
CCC1(C)CC(c2nc(-c3ccc(OC)cc3)cs2)CCS1 (stereo not given),0.9,13,-1.6,20,.,0,.,.,.,.
O=C(C[C@@H]1C/C=C/CC[C@@H](Cc2ccc(F)cc2)C(=O)O[C@H](c2ccccc2)CNC1=O)NCCO,-0.3,.,.,.,.,-9,-6,8,12,-0.8
CCC(C)[C@H](NC(=O)NC1CC1)C(=O)O (stereo not given in full),1.2,-4,0.8,-4,5%,-5,-8,-11,0.6,.
CC(C)(C)C1CCC(OC(=O)CCC(=O)Nc2ccccc2)CC1 (stereo not given),1.5,18,7.9,-23,.,0,.,.,.,.
Cc1nc(-c2ccccc2O)n(S(=O)(=O)N(C)C)n1,-0.3,5,3.2,7,11%,2,.,.,.,.
CC(=O)c1cccc(NC(=O)CN(Cc2ccccc2)S(C)(=O)=O)c1,0.0,-18,1.2,-4,28%,-4,.,.,.,.
COc1ccc(C(C(C(=O)c2ccco2)N2CCOCC2)N2CCOCC2)cc1 (stereo not given),-1.7,-2,4.6,0,-1%,-2,.,.,.,.
COc1ccc(-c2ccc(OC(=O)NC3CCS(=O)(=O)C3)cc2)cc1 (stereo not given),-0.3,20,-1.6,-7,.,-9,-14,-16,-2.7,-3.0
Cc1cccc(-c2nnc(SCC3CNC(=O)O3)n2-c2ccc(Cl)cc2)c1 (stereo not given),0.3,1,1.5,22,1%,6,3,2,0.4,0.4
COc1ccc(NC(=O)CSc2nccc(C)n2)cc1,-0.4,-10,1.5,3,1%,5,.,.,.,.
CC(C)CCN(C(=O)Cc1ccccc1F)c1c(N)n(Cc2ccccc2)c(=O)[nH]c1=O,-0.7,5,7.5,1,.,0,26,15,5.6,-1.2
O=C(c1cccc(F)c1)N1CCN(S(=O)(=O)Cc2ccccc2)CC1,0.7,-2,-2.5,10,.,-2,8,-1,3.4,-0.5
COC(=O)c1sc(N)c(C(=O)OC)c1COC(=O)C1CC(=O)N(Cc2ccco2)C1 (stereo not given),0.8,17,-2.4,-10,-1%&5%,-6,.,.,.,.
CC(=O)Nc1ccc(S(=O)(=O)NCCC(=O)OC(C)C(=O)c2ccc(C)cc2)cc1 (stereo not given),0.7,-8,4.8,-3,.,1,-3,-3,-2.0,0.2
CCOC(=O)c1cc2occc2n1Cc1ccc(F)cc1,0.8,20,?,.,22%,-3,.,.,.,.
Cc1ccc(C(=O)NCC(=O)OCC(=O)NCCc2ccccc2)s1,0.9,-5,3.3,7,-11%,.,10,10,5.6,-2.5
COc1ccc(OCc2nnc3n2N=C(c2ccc(C)cc2)CS3)cc1,-0.2,8,1.4,-9,?,-9,-4,-5,-1.4,-1.1
COc1ccccc1NC(=S)NC1CCCCCCCCCCC1,-0.1,54,-1.0,-2,2%,77*,5,4,3.9,3.0
Cn1c(=O)cc(OCC(=O)NCCC2=CCCCC2)c2ccccc21,1.6,-4,7.3,12,-2%,7,-23,-28,-7.7,2.8
COc1ccc2nc(NC(=O)c3ccccc3[N+](=O)[O-])sc2c1,-2.0,-7,-5.7,-15,.,0,-34,-39,-7.0,1.3
CCOC(=O)CN1C(=O)/C(=C/c2cccc(Br)c2)Oc2ccccc21,0.4,0,-2.7,4,-23%,1,10,7,1.3,0.6

The list continues.
Screens in order: Bfl-1 A1 inh, T cruzi repl, RanGTP-Impb inh, Calb FLC, Vif A3G, Beta cell apopt, rRNA inh HTS, rRNA inh HTS OD600, rRNA inh HTS RFP, AF4-AF9 inh
- O=C(NC1CCCCC1)c1ccc(COc2ccccc2)o1
 : 0.5, -7, -1.7, 1, 0%, 0, -3, -8, 0.6, 8.8
- O=[N+]([O-])c1ccccc1/C=C/C=N/n1c(-c2ccc(Cl)cc2)n[nH]c1=S
 : -0.5, -6, -0.3, 9, 10%, -7, ., ., ., .
- CCCSC1=N/C(=C\c2ccc3c(c2)OCO3)C(=O)S1
 : -0.7, -19, 4.4, -13, 27%, -7, ., ., ., .
- Cc1ccccc1Oc1nnc(-c2cccs2)c2ccccc12
 : ., 11, 0.6, ?, -55%, ., 11, 5, 1.6, 0.7
- CCN(C(=O)COC(=O)CSc1ccc(C(N)=O)cc1[N+](=O)[O-])C1CCCCC1
 : 0.1, -5, 2.3, -4, ., -2, -3, 8, 2.7, 0.5
- CSc1ccccc1C(=O)C1CCCN(C(=O)NC(C)C)C1 (stereo not given)
 : 0.9, 12, 1.1, -1, 23%, -5, 11, 0, 0.4, 0.9
- N#CCCCSc1ncccc1-c1nc2ccccc2[nH]1
 : -1.3, 1, ., 1, -20%, -1, ., ., ., .
- Cc1ccc(-n2nc(C)c3c(C)c(CCC(=O)Nc4ccc(CN5CCCC5)cc4)c(C)nc32)cc1
 : 0.6, 72*, -3.2, 0, -8%, 41, -54, -81, -20, 27*
- Cc1ccsc1/C=C1/CN(C)Cc2c1nc1ccccc1c2C(=O)O
 : 0.9, -16, -96, 0, 9%, 5, -6, 7, 4.6, -0.8
- C=C(C)Cn1c(CCNC(=O)c2ccco2)nc2ccccc21
 : 0.6, 2, 0.5, 0, ., -2, 1, 5, -2.4, 1.5

Filtered by structure, those above containing a thiophene ring, fused or not.
Screens in order: Bfl-1 A1 inh, T cruzi repl, RanGTP-Impb inh, Calb FLC, Vif A3G, Beta cell apopt, rRNA inh HTS, rRNA inh HTS OD600, rRNA inh HTS RFP, AF4-AF9 inh
- COC(=O)c1sc(N)c(C(=O)OC)c1COC(=O)C1CC(=O)N(Cc2ccco2)C1 (stereo not given)
 : 0.8, 17, -2.4, -10, -1%&5%, -6, ., ., ., .
- Cc1ccc(C(=O)NCC(=O)OCC(=O)NCCc2ccccc2)s1
 : 0.9, -5, 3.3, 7, -11%, ., 10, 10, 5.6, -2.5
- Cc1ccccc1Oc1nnc(-c2cccs2)c2ccccc12
 : ., 11, 0.6, ?, -55%, ., 11, 5, 1.6, 0.7
- Cc1ccsc1/C=C1/CN(C)Cc2c1nc1ccccc1c2C(=O)O
 : 0.9, -16, -96, 0, 9%, 5, -6, 7, 4.6, -0.8

Additional results.
Screens in order: Bfl-1 A1 inh, T cruzi repl, RanGTP-Impb inh, Calb FLC, Vif A3G, Beta cell apopt, rRNA inh HTS, rRNA inh HTS OD600, rRNA inh HTS RFP, AF4-AF9 inh
- O=C(NC1CCCC1)C(c1ccncc1)N(Cc1cccs1)C(=O)c1csnn1 (stereo not given)
 : 0.7, -3, -1.7, -6, 16%, 1, ., ., ., .
- O=C(Nc1cccc(-c2nc3cccnc3s2)c1)c1ccc(Cl)nc1
 : -1.1, -5, 0.2, 3, -43%, 3, 2, 9, 6.2, 0.9
- O=C(OCN1C(=O)c2ccccc2C1=O)c1cccc(OC(F)F)c1
 : -0.7, -8, -0.7, 6, ., -7, 8, 12, -0.2, -3.3
- COc1ccc(OCCCC(=O)NCCc2ccccc2)cc1
 : -0.7, -10, 3.1, 27, -7%, -7, ., ., ., .
- COc1cc(C2NC(C(=O)O)Cc3c2[nH]c2ccccc32)cc(OC)c1OC (stereo not given)
 : 0.5, -8, 0.5, 3, 15%, -1, ., ., ., .
- O=C(NCCc1ccccc1)C1CCC(=O)N(Cc2cccc(C(F)(F)F)c2)C1 (stereo not given)
 : 0.8, -1, -2.2, 22, ., 2, -6, -1, 1.7, -0.9
- Cc1cc(=O)[nH]c(SCC(=O)Nc2nnc(SCc3ccccc3)s2)n1
 : 0.5, -12, 3.8, 33, 29%, 0, -5, -10, 0.5, -2.2
- COc1ccc(NC(=O)CN(C2CCCCC2)S(C)(=O)=O)cc1Cl
 : -0.2, -2, 6.8, 46, 7%, -6, ., ., ., .
- COc1ccc([C@@H]2[C@@H]3C(=O)N(C(C)(C)C)C(=O)[C@@H]3[C@]3(Cc4ccc(Cl)cc4)C(=O)N(c4cccc(C)c4)C(=O)N23)cc1
 : -0.5, 16, -3.7, 6, ., 3, 7&16, 10&14, 1.7&3.0, 1.6
- CCCNC(=O)C1CCC(CNS(=O)(=O)c2cccc3nsnc23)CC1 (stereo not given)
 : ., 5, -1.8, 3, 1%, ., 1, 3, -4.1, 4.9
- Cc1nn(-c2ccccc2)c(C)c1C(=O)OC(C)C(=O)NC1CCCCC1C (stereo not given)
 : -0.2, ., ., ., -4%, 6, 0, -1, -1.0, 1.1

Assay outcomes from PubChem BioAssay.

A portion of the library; rates above refer to the full screens.
